Screening data deposited in PubChem BioAssay by University of Pittsburgh Molecular Library Screening Center.
WNV NS2B-NS3 inh = WNV NS2B-NS3 proteinase inhibition; P06935; z-score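 (tested at a level between 10 and 100 µM)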; hit rate 0.18% among 65,000; AID 577; WNV NS2B-NS3 protease, fluorogenic substrate Ex360/Em465; active compounds read low;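 active = z-score at -3 or under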;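 note: score is relative to mean and spread of the compound wells of a plate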
Target sequence (P06935 1371-1501 limits assumed): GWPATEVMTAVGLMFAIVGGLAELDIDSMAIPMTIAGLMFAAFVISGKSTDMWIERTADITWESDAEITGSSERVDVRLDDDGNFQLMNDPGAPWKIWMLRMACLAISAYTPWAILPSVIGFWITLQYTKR
Target sequence (P06935 1502-1679 limits assumed): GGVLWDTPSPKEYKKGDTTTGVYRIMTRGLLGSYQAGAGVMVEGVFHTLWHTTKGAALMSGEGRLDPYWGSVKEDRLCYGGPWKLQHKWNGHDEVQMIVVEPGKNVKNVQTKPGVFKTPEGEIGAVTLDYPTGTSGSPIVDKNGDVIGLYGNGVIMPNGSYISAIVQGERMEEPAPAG
* hit, by the source's call. An excerpt (hit frequency here may not be typical).

SMILES | WNV NS2B-NS3 inh
COC(=O)C1=C(C(=O)c2ccc(C)cc2)C(c2ccc(OC)c(OC)c2)n2nnnc2N1 (configuration not stated) | -0.27
Fc1ccc(Nc2nc(Oc3ccc4c(c3)OCO4)nc(N3CCOCC3)n2)c(F)c1 | -1.3
COc1ccc(S(=O)(=O)N(CC(=O)O)c2ccccc2)cc1 | 0.11
Cc1ccc(Cn2c(-c3nonc3N)nc3ccccc32)cc1 | -0.62
CCOC(=O)C1=C(C)N=C2SC(CC)C(=O)N2C1c1ccc(OC(C)=O)c(OCC)c1 (configuration not stated) | 0.31
Nc1nnc(-c2ccccc2)c(-c2ccccc2)n1 | -0.83
COCCNC(=O)Nc1ccc2c(c1)N(C)C(=O)CS2 | 0.51
Cc1ccc(-c2nc3cnccn3c2Nc2ccc3c(c2)OCO3)o1 | -0.92

Going on with the list.
SMILES | WNV NS2B-NS3 inh
O=C(CCNc1cccc(Cl)c1)c1ccco1 | 1.7
O=C(CCN1C(=O)c2ccccc2C1=O)Nc1ccc(F)cc1F | -1
CS(=O)(=O)Nc1ccccc1C(=O)Nc1cccc(Cl)c1 | -0.76
CCc1ccccc1-n1c(-c2ccncc2)n[nH]c1=S | 0.65
Oc1ccccc1-c1nnc(COc2ccc(Cl)cc2Cl)o1 | -0.66
COc1ccc(C2CC(C(F)(F)F)n3ncc(C(=O)NCC4CCCO4)c3N2)cc1OC (configuration not stated) | 0.82
Fc1cccc(Cl)c1CSc1ncn[nH]1 | 2.9
COc1ccc(NC(=O)C2=C(C)NC(=O)NC2c2cccc(OC)c2OC)c(OC)c1 (configuration not stated) | -0.82

The list continues.
SMILES | WNV NS2B-NS3 inh
CC1Cc2ccccc2N1C(=O)CCn1c(=O)sc2ccccc21 (configuration not stated) | -0.8
Cc1cc2nc(NC3=NCN(Cc4cccnc4)CN3)nc(C)c2cc1C | 1.3
N#CC(C(=O)NC1CCCCC1)c1nc2ccccc2nc1N1CCCCC1 (configuration not stated) | 0.18
COc1ccc(OC)c(NC(=O)C2CCN(S(=O)(=O)c3c(C)noc3C)CC2)c1 | -1.6
Cc1nn(C(=O)c2cccs2)c(C)c1CN1C(=O)c2ccccc2C1=O | 0.66
COC(=O)c1nnn(CC(=O)Nc2cccc(Cl)c2C)c1C(=O)OC | -1.1
CC(c1nnc(SCC(=O)Nc2sccc2C#N)n1-c1ccc(Cl)cc1)N(C)C (configuration not stated) | -0.09
O=C(Cc1ccccc1)NCCSCc1ccco1 | -0.49

Going on with the list.
SMILES | WNV NS2B-NS3 inh
O=C1c2ccccc2C(O)N1Cc1ccccc1Cl (configuration not stated) | 0.05
CCC(C)OC(=O)C1=C(C)NC2=C(C(=O)C(C(=O)OC)C(C)C2)C1c1ccc(N(C)C)cc1 (configuration not stated) | -0.02
O=C(NC1CCCCC1)N1CCSC1=Nc1ccccc1 | 0.03
Cn1c2ccccc2c2c(C(=O)NCC3CCCO3)cn(C3CCCC3)c(=O)c21 (configuration not stated) | -0.99
COc1ccc(Cn2c(C)ccc2C)cc1 | 1.9
CCn1c(SCC(=O)N2CCCc3ccccc32)nc2c(c1=O)SC(C)C2 (configuration not stated) | -0.31
CN1C(=O)c2cccc(NC(=O)Cc3ccccc3)c2C1=O | 0.8
O=C(NCCc1ccc(Cl)cc1)C1CCN(S(=O)(=O)c2cccc3nonc23)CC1 | 0.28

The list continues:
SMILES | WNV NS2B-NS3 inh
COc1ccc(C2C=C(c3ccc(Br)s3)Nc3ncnn32)cc1OC (configuration not stated) | -1.1
N#CC1=C(SCC(N)=O)NC(=O)CC1c1ccccc1Cl (configuration not stated) | -1
O=S1(=O)C=CC(N2CCOCC2)C1 (configuration not stated) | 0.37
COc1cccc2c1OC1(C)CC2NC(=O)N1c1cccc(C(=O)N2CCN(c3ccccn3)CC2)c1 (configuration not stated) | -0.01
COc1ccc(Cc2nnc(NC(=O)Cc3cccs3)s2)cc1OC | -1.1
COC(=O)c1cc(=O)nc2sccn12 | -1.3
O=C(C1CCN(S(=O)(=O)N2CCC3(CC2)OCCO3)CC1)N1CCc2ccccc2C1 | 0.22
CCOc1cc(C)c(S(=O)(=O)NC2CCCCC2)cc1C | -0.02

New compounds follow
SMILES | WNV NS2B-NS3 inh
Cc1ccc(S(=O)(=O)C(C#N)c2nc3ccccc3nc2N2CCCCC2)cc1 (configuration not stated) | -0.13
CCSC1=C(C#N)C(c2ccccc2Cl)CC(=O)N1 (configuration not stated) | 0.57
CCOC(=O)c1c(NC(=O)C2CCCN2S(=O)(=O)c2cccc3nsnc23)sc(C)c1C (configuration not stated) | -1.1
Cc1ccc(S(=O)(=O)N(CC(O)CN(C)C)c2ccccc2)cc1 (configuration not stated) | -0.04
Cc1oc2cc(O)ccc2c(=O)c1Oc1ccccc1 | 0.32
CC1(C)SCC(C(=O)O)N1C=O (configuration not stated) | 1.4
CCOc1ccccc1C1C(C(N)=O)=C(C)Nc2nc(CCCO)nn21 (configuration not stated) | 1.2
Cc1cc(C)nc(SCC(=O)Nc2ccc(N3CCOCC3)cc2)n1 | 0.18

Following part.
SMILES | WNV NS2B-NS3 inh
Fc1ccc(CNc2ccc(CNc3ncn[nH]3)cc2)cc1 | 0.9
Cc1ccc(CNC(=O)c2cn(C3CCCCC3)c(=O)c3c2c2ccccc2n3C)o1 | -0.47
CCOc1ccc(NC(=O)N(C2CCCCC2)C2CCN(C(C)=O)CC2)cc1 | 1.9
C=CCNCc1cccn1-c1sc2c(c1C#N)CCCC2 | 0.77
COc1cccc2c1OC1(C)CC2NC(=O)N1c1cccc(C(=O)Nc2ccc3c(c2)OCCO3)c1 (configuration not stated) | -0.01
COC(=O)Cc1ccc2c3ccccc3n(C)c2c1 | -1.4
CCC(=O)N1CCc2cc(S(=O)(=O)N3CCN(c4ccccn4)CC3)ccc21 | -0.17
COc1nnc(-c2ccc(N3CCOCC3)c(NC(=O)c3ccco3)c2)c2ccccc12 | 0.0013

(continued)
SMILES | WNV NS2B-NS3 inh
Cc1cc(=O)c2ccccc2s1 | -0.19
Cc1cc(=O)[nH]c(SCC(=O)Nc2ccc(S(=O)(=O)N3CCCCC3)cc2)n1 | 0.8
CC(C)n1cnc2cc(NCc3nc4ccccc4n3C)ccc21 | 0.41
CN(CCCC(=O)Nc1nccs1)S(=O)(=O)c1ccc(Cl)cc1 | -0.92
COC(=O)C1=C(C(=O)c2ccc(C)cc2)C(c2ccc(O)c(OC)c2)n2nnnc2N1 (configuration not stated) | 0.09
CCCC(=O)c1cc(F)c(N2CCN(S(=O)(=O)c3ccccc3)CC2)cc1C | 1.1
COc1ccc(NS(=O)(=O)c2cc(-c3nnnn3C)ccc2OC)cc1 | -0.07
Cn1c(=O)oc2cc(S(=O)(=O)N3CCCC(C(=O)NCC4COc5ccccc5O4)C3)ccc21 (configuration not stated) | 0.77

Going on with the list.
SMILES | WNV NS2B-NS3 inh
CCOC(=O)c1nnn(CC(=O)Nc2cc(Cl)ccc2C)c1C(=O)OCC | -2.2
COc1ccc(-c2noc(CCC(=O)Nc3cc(Cl)c(OC)cc3OC)n2)cc1 | 0.71
CC(=O)N1CCC(N2CCN(c3ccccc3F)CC2)CC1 | -0.24
COc1ccccc1NC(=O)Cn1cnc2sc(C(=O)NCc3ccco3)c(C)c2c1=O | -0.39
CC(=O)NC1C(=O)Nc2c1cccc2C(F)(F)F (configuration not stated) | 0.5
CCOC(=O)CCCCC(=O)c1[nH]c(=O)[nH]c1CSc1nc2ccccc2[nH]1 | -0.37
O=C(c1ccc(Cl)cc1)N1CCN(c2nc(N3CCCCC3)nc(N3CCCCC3)n2)CC1 | -0.15
CN(C)c1ccc(CN(C)C2CCCCC2)cc1 | -0.01

The results go on:
SMILES | WNV NS2B-NS3 inh
COc1ccc(OC)c2c1CC(C)(C)NC2=O | -0.82
Cc1n[nH]c(C)c1S(=O)(=O)NCCc1ccc(Cl)cc1 | -0.11
C=CCNC(=O)c1ccccc1Cl | -0.37
CCOC(=O)c1oc2cccc(O)c2c1CN(Cc1ccccc1)C(C)=O | -0.91
Cc1cc(C)nc(NS(=O)(=O)c2ccc(NC(=O)Cn3c(=O)oc4ccccc43)cc2)n1 | -0.83
CCC1=C/C(=C\c2ccc3c(c2)OCO3)C(=O)S1 | -0.93
N#Cc1cc2ccccc2nc1SCc1cccnc1 | -0.87
CC(=O)c1c(N2CCCCC2)nc(=S)n(Cc2ccccc2)c1C | 0.02

Continued.
SMILES | WNV NS2B-NS3 inh
c1ccc(-c2nc(CSc3nnnn3-c3ccccc3)cs2)cc1 | -0.35
COc1ccccc1NC(=O)C1CCCN(S(=O)(=O)c2cccc3nsnc23)C1 (configuration not stated) | -0.39
O=C(NCC1CCCO1)C1CCN(S(=O)(=O)c2cccc3nonc23)CC1 (configuration not stated) | 0.99
Cc1ccc(N(C(=O)c2ccncc2)C2C=CS(=O)(=O)C2)cc1 (configuration not stated) | 2.2
CCn1c(=O)cc(OCC(=O)NCCCN2CCC(C)CC2)c2ccccc21 | -0.15
CN1CCC(NC(=O)Cc2c(F)cccc2Cl)CC1 | -0.76
CCOC(=O)N1CCC(NC(=O)c2ccc3c(c2)N(CC)CCS3)CC1 | 1.3
Cc1cccc2cc(CN(Cc3cccs3)Cc3nnnn3Cc3ccccc3)c(=O)[nH]c12 | -0.58

Following part:
SMILES | WNV NS2B-NS3 inh
COc1ccc(-c2nc(CSCC(=O)NCc3ccc4c(c3)OCO4)c(C)o2)cc1OC | -0.42
COCc1nnc(NC(=O)c2cccs2)s1 | -1.2
Cc1ccc(C2CC(=O)N3CN(c4ccc(Br)cc4)CSC3=C2C#N)o1 (configuration not stated) | 0.66
Cc1cc2cc(CNC(=O)c3ccc(Br)o3)ccc2[nH]1 | -0.19
OCC1N=C(c2ccccn2)OC1c1ccccc1 (configuration not stated) | 0.62
Cc1ccc(-n2c(N)c(C(=O)N3CCCCC3)sc2=S)cc1 | -0.34
CCOC(=O)N1CCC(N2C(=O)c3ccc(C(=O)NCc4ccc(F)cc4)cc3C2=O)CC1 | -0.21
Cc1cc(C)n(-c2nc(C)nc(NCc3ccccc3)n2)n1 | -0.21

Among those listed so far, these have two or more sulfur atoms.
SMILES | WNV NS2B-NS3 inh
CC(c1nnc(SCC(=O)Nc2sccc2C#N)n1-c1ccc(Cl)cc1)N(C)C (configuration not stated) | -0.09
CCn1c(SCC(=O)N2CCCc3ccccc32)nc2c(c1=O)SC(C)C2 (configuration not stated) | -0.31
COc1ccc(Cc2nnc(NC(=O)Cc3cccs3)s2)cc1OC | -1.1
CCOC(=O)c1c(NC(=O)C2CCCN2S(=O)(=O)c2cccc3nsnc23)sc(C)c1C (configuration not stated) | -1.1
Cc1cc(=O)[nH]c(SCC(=O)Nc2ccc(S(=O)(=O)N3CCCCC3)cc2)n1 | 0.8
CN(CCCC(=O)Nc1nccs1)S(=O)(=O)c1ccc(Cl)cc1 | -0.92
c1ccc(-c2nc(CSc3nnnn3-c3ccccc3)cs2)cc1 | -0.35
COc1ccccc1NC(=O)C1CCCN(S(=O)(=O)c2cccc3nsnc23)C1 (configuration not stated) | -0.39
COCc1nnc(NC(=O)c2cccs2)s1 | -1.2
Cc1ccc(-n2c(N)c(C(=O)N3CCCCC3)sc2=S)cc1 | -0.34

More records.
SMILES | WNV NS2B-NS3 inh
O=C(C1CCC(CNS(=O)(=O)c2cccs2)CC1)N1CCCCC1 (configuration not stated) | 2.3
COc1ccc(CCC(C(O)C(F)(F)F)S(=O)c2ccccc2)cc1 (configuration not stated) | -0.61
OCCN1CCN(c2nc(N3CCCCC3)nc(N3CCCCC3)n2)CC1 | -0.93
O=S(=O)(c1ccc(F)cc1)N1CCC(N2CCCC2)CC1 | 2
Cc1nc2ccc(S(=O)(=O)NC(C(=O)NCc3ccco3)C(C)C)cc2s1 (configuration not stated) | -2.6
CCCCOC(=O)c1[nH]c2c(c1C)C(=O)CC(c1cc(OC)c(OC)c(OC)c1)C2 (configuration not stated) | -0.37
Cn1cccc1C(C(=O)NC1CCCCC1)N(C(=O)Cc1cccs1)c1ccc2c(c1)OCCO2 (configuration not stated) | -0.71
Cc1noc(C)c1S(=O)(=O)N1CCC(C(=O)N2CCN(C(=O)c3ccco3)CC2)CC1 | -0.67

Following part:
SMILES | WNV NS2B-NS3 inh
COc1ccccc1CNC(=O)C1CCCN(S(C)(=O)=O)C1 (configuration not stated) | -0.8
CCCn1cc(SCC(N)=O)c2ccccc21 | 0.06
CC(NC(=O)c1ccco1)c1ccc2c(c1)OCCO2 (configuration not stated) | 1.2
CC(=O)Nc1ccc(S(=O)(=O)N2CCN(c3cc(C)ccc3C)CC2)cc1 | -0.76
Cc1cc2cc(CNC(=O)Cc3cccs3)ccc2n1C | 0.49
CCOC(=O)N1CCN(C(=O)c2cn(CC)c3ccc(S(=O)(=O)N4CCCC4)cc3c2=O)CC1 | -0.32
O=C1Nc2ccccc2C12Nc1ccccc1S2 (configuration not stated) | -0.84
CCOc1ccc(N(CC(=O)NC2CCCCC2)S(=O)(=O)c2c(C)noc2C)cc1 | -0.49

Later entries:
SMILES | WNV NS2B-NS3 inh
CCOC(=O)N1CCC(NC(=O)C2CCCN(Cc3nc(-c4cccc(Cl)c4)oc3C)C2)CC1 (configuration not stated) | -0.25
COc1ccc(S(=O)(=O)N2CCN(S(=O)(=O)c3ccc4c(c3)OCCO4)CC2)cc1C | -0.27
CCOC(=O)N1CCC(NC(=O)CN2C(=O)CSc3ncccc32)CC1 | -0.58
CCOc1ccc2nc(NC(=O)C(CCSC)NS(=O)(=O)c3cccs3)sc2c1 (configuration not stated) | -0.8
N#CC(C(=O)Nc1cccc(Cl)c1)=C1Nc2ccccc2N1 | 0.08
Cn1c(=O)c2c(nc(SCc3cccnc3)n2Cc2ccccc2)n(C)c1=O | -0.68
O=c1c2oc3ccccc3c2ncn1Cc1ccccc1Cl | -1.2
COCCNC(=O)Cn1cnc2c1c(=O)n(C)c(=O)n2C | 1

(more compounds)
SMILES | WNV NS2B-NS3 inh
Nc1ccc2nc(-c3ccc(Cl)cc3)[nH]c2c1 | 3.1
CC(Sc1nnc(-c2ccc(O)cc2)o1)C(=O)Nc1cccc2ccccc12 (configuration not stated) | 1.1
CCCCn1ccc(=O)c2c(C(F)(F)F)nccc21 | -0.18
Cc1ccnc(-n2sc3ccccc3c2=O)n1 | -0.31
O=C(CSc1nnc(CNC(=O)c2ccccc2F)o1)NCC1CCCO1 (configuration not stated) | 0.63
Cc1nc(N2CCN(C)CC2)c2c(C)c(C(=O)Nc3ccc(F)cc3)sc2n1 | 1.2
